# VDR inhibitor = vitamin D3 receptor (human) inhibition. P11473. Potency, µM, for inactives: max response, negative = inhibition, hits mostly inhibitors. VDR-SRC2-3 peptide fluorescence polarization, 2 h. AID 504847. hit rate 0.93% among 400,000; active = well fitted inhibition curve with a large enough effect; inconclusive = small, poorly fitted or top-dose-only effect, or another doubt; inactive = no such curve, though single readings can be large or run the other way; note: series mostly up to about 120 µM
# Target sequence (P11473 whole entry, looked up): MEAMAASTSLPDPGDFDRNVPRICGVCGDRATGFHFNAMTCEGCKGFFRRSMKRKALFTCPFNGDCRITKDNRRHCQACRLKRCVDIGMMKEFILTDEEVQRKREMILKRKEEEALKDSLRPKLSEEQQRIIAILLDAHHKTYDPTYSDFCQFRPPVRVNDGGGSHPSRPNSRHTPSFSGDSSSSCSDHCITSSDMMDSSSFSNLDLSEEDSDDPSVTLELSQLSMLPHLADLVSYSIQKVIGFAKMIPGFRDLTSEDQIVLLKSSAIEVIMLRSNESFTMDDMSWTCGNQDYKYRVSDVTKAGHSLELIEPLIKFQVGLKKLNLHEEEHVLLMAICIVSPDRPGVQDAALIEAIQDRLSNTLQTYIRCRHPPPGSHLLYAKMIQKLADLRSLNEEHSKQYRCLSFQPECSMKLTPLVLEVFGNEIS
#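 Inhibition of the VDR/SRC2-3 peptide interaction is quantified by fluorescence polarization. Compounds (23 nl, pintool) incubate with the reagents for 2 hours at ambient room temperature.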
# An asterisk follows results filed as active; ? = inconclusive; & = joins results of further samples. % is set by controls: 0 for no effect and ±100 for the full control effect; potency is the fitted concentration of half-maximal effect.
no.	mol	VDR inhibitor
1	COc1ccc(C2C3C(=O)N(Cc4ccccc4)C(=O)C3ON2c2ccccc2)c(OC)c1OC (stereo not drawn)	-17.3%
2	CCc1ccc(Nc2cc(C)nc3ncnn23)cc1	-5.6%
3	CC(NC(=O)Cc1ccsc1)c1ccc(F)cc1 (stereo not drawn)	-19.7%
4	O=S1(=O)[C@H]2C[C@@H]3C=C[C@@]2(CN1Cc1ccc(F)cc1)O3	?
5	Cc1ccc(/C(N)=N/OC(=O)COc2ccc(Cl)c(C)c2)cc1	-15.9%
6	Cc1cccc(-n2c(=O)c3c4c(sc3n3c(C)nnc23)CCCC4)c1	-4.6%
7	COc1ccc(CNC(=O)CCC(=O)N2CC3CCCN3c3ccccc32)c(OC)c1 (stereo not drawn)	-1.6%
8	Cc1ccc2oc(C(=O)N3CCN(CCO)CC3)c(C)c2c1	2.5%
9	Brc1ccc(CN2CCc3nc(N4CCN(c5ncccn5)CC4)ncc3C2)cc1	5.6%
10	Cn1c(=O)c2cc(S(=O)(=O)NCCC(=O)NCC3CCCO3)ccc2n(C)c1=O (stereo not drawn)	-3.3%
11	CC(C)CN1CCN(Cc2cc(F)ccc2-n2cccn2)CC1CCO (stereo not drawn)	19.7%
12	Cc1ccc2[nH]cc(S(=O)(=O)c3ccc(C)c(C)c3)c(=O)c2c1	14.0%&-4.0%
13	CN(C)CCCN(C(=O)CCc1ccccc1)c1nc2c(F)cccc2s1	-10.8%
14	O=C(O)COc1ccccc1/C=N/NC(=O)C(O)c1ccccc1 (stereo not drawn)	-9.1%
15	CCC(NC(=O)Nc1cc(Cl)ccc1OC)c1c(-n2cccc2)sc2c1CCN(C)C2 (stereo not drawn)	15.6%
16	CCn1cc(C(=O)NCC(OC)OC)c(=O)c2cc(S(=O)(=O)N3CCC(C)CC3)ccc21	-9.6%
17	Cc1ccc(C2Nc3ccccc3-n3c(-c4ccccc4)c4c(=O)n(C)c(=O)n(C)c4c32)cc1 (stereo not drawn)	10.5%
18	Cc1cccc(NC(=O)c2cc(S(=O)(=O)N(C)c3ccc(F)cc3)ccc2Cl)n1	-22.9%
19	Cc1ccc(-c2noc(CCC(=O)NCCN3CCc4ccccc4C3)n2)cc1	-6.0%
20	CC1(c2nnc(Cc3ccccc3)o2)CC(c2ccccc2[N+](=O)[O-])=NO1 (stereo not drawn)	?

# Down the list, as entered above.
# VDR inhibitor for entries 2 to 5, in order: -5.6%, -19.7%, ?, -15.9%

# 4 structures already listed, arranged by formula weight, falling:
no.	mol	VDR inhibitor
18	Cc1cccc(NC(=O)c2cc(S(=O)(=O)N(C)c3ccc(F)cc3)ccc2Cl)n1	-22.9%
13	CN(C)CCCN(C(=O)CCc1ccccc1)c1nc2c(F)cccc2s1	-10.8%
20	CC1(c2nnc(Cc3ccccc3)o2)CC(c2ccccc2[N+](=O)[O-])=NO1 (stereo not drawn)	?
2	CCc1ccc(Nc2cc(C)nc3ncnn23)cc1	-5.6%

# Next structures:
no.	mol	VDR inhibitor
21	CN(C)C(=S)Nc1ccc(Cc2ccncc2)cc1	-25.5%
22	Cc1cnc(CN(C)C(=O)CC2C(=O)NCCN2Cc2cccc(F)c2F)[nH]1 (stereo not drawn)	8.1%
23	COc1cccc(CNC(=O)COC(=O)CCCNC(=O)c2ccc(Cl)cc2)c1	-0.9%
24	Cc1ccc2[nH]c(=O)c(CN(C)S(=O)(=O)c3cccc4nonc34)cc2c1	-1.4%
25	COc1ccc2c(=O)c3c(=O)n(Cc4ccccc4)c(C(C)C)nc3oc2c1	-3.1%
26	Cc1cc(C)nc(N/N=C/c2cccc3ccccc23)n1	-6.3%
27	COC(=O)C1=C(C(=O)OC)[C@@H]2N(C)c3ccccc3[C@@]23C[C@@H](C(=O)OC)N(C(=O)C2CCC2)C3=N1	-10.5%
28	CCN1CCN(C(c2cccs2)C(C)NC(=O)c2c(F)cccc2F)CC1 (stereo not drawn)	-7.2%
29	Cc1ccc(C)c(N2CCN(C(=O)CN3C(=O)CSc4c3c(C)nn4-c3ccccc3)CC2)c1	7.4%
30	COc1cccc(-c2cc(C(F)(F)F)nc(-n3nc(C)c(Br)c3C)n2)c1	9.8%
31	COc1ccc(NC(=O)COc2nsnc2N2CCOCC2)c(OC)c1	-8.3%
32	CC(C)Cn1c(N)c(C(=O)COC(=O)c2ccc(O)cc2)c(=O)n(C)c1=O	-19.8%
33	COc1ccc2oc(=O)c(C(=O)NCc3cccnc3)cc2c1	10.3%
34	O=C(OCC(=O)N1CCc2ccccc2C1)c1cc(=O)[nH]c2ccccc12	-17.0%
35	O=S(=O)(c1ccc(Br)s1)N1CCNCC1	-10.9%
36	COc1ccc(NC(=O)[C@H](Cc2ccccc2)N2Cc3ccccc3C2=O)cc1OC	-5.1%
37	COc1ccc(CNC(=O)CCOc2ccc(C(C)(C)C)cc2)cc1	7.3%
38	CC(=O)Nc1ccc(NS(=O)(=O)c2ccc3c(c2)CC(C)N3C(=O)C2CCC2)cc1 (stereo not drawn)	9.5%
39	CN1C(=O)c2c(sc3c2CC(C)(C)SC3)N2CCN=C12	1.6%
40	COc1ccc(NC(=O)c2c(NCc3cccs3)sc3c2CCCCC3)cc1	-12.9%
41	COc1ccc(-n2nc(C(=O)NCC(=O)NCCC3=CCCCC3)c3ccccc3c2=O)cc1	-2.8%
42	Cc1cc2oc(=O)cc(-c3ccccc3)c2c(C)c1/C=C/c1ccc(F)cc1	-9.1%
43	CCn1c(SCc2cccnc2)nc2c1c(=O)n(C)c(=O)n2C	11.8%
44	N#Cc1c2n(c3c(=O)n(CC(=O)c4ccc(Br)cc4)cnc13)CCCC2	5.7%
45	CC(C)CC(=O)/C(=C\c1ccc(Cl)cc1Cl)n1cncn1	3.98µM*
46	Cc1ccc(C(=O)N[C@H](C(=O)OCc2cc(=O)n3c(n2)sc2ccccc23)C(C)C)cc1	11.7%
47	COc1cc(C(=O)NC(=S)Nc2ccc(N3CCCC3)cc2)cc(OC)c1OC	-19.7%
48	C/C(=N\NC(=O)Cn1nc(C)cc1C)c1ccc([N+](=O)[O-])cc1	-11.9%
49	Cc1cnc(CN2CCc3c([nH]c4ccccc34)C2CC(C)C)[nH]1 (stereo not drawn)	-6.1%
50	COc1ccccc1CNC(=O)C(C)c1ccc([N+](=O)[O-])cc1 (stereo not drawn)	-3.6%
51	CCOc1ccc(NC(=O)CSc2c3c(nc4ccccc24)CCCC3)cc1	0.4%
52	COc1ccc2c(c1)CC/C(=C\Nc1ccc3c(c1)OCO3)C2=O	-14.4%
53	CC(=O)NCCc1nc2cc(NC(=O)c3ccc(F)cc3)ccc2n1C	-17.6%
54	Cc1cnc(CNc2nc(-c3c(C)noc3C)nc3ccccc23)cn1	?
55	O=C(CSc1nnc(-c2ccccc2)n1Cc1ccccc1)NC1CC1	2.1%
56	O=S(=O)(c1ccc(Br)s1)n1cccn1	6.0%
57	O=C(Nc1ncc2c(n1)-c1ccccc1OC2)c1cccc([N+](=O)[O-])c1	-10.4%
58	Cc1c(C(=O)Nc2ccccc2)csc1-c1ccccc1	-15.4%
59	CC(C)(C)OC(=O)N1CCC(NC(=O)c2nc[nH]c2C(=O)N2CCN(C(=O)OC(C)(C)C)CC2)CC1	-2.1%
60	CCN(CC)C(=O)c1ccc2nc3ccccc3nc2c1	25.7%
61	Cc1ccc(-c2nn[nH]n2)cc1	-7.5%
62	CCOc1ccc(NC(=O)CCc2c(C)nn(-c3ccc(N4CCCCC4)nn3)c2C)cc1	-5.7%
63	Cc1cccc(N(Cc2ccccc2)C(=O)c2cc(S(=O)(=O)N3CCOCC3)ccc2Cl)c1	2.6%
64	CNc1ccc(C(=O)OCC(=O)Nc2ccnn2C(C)C)cc1[N+](=O)[O-]	-7.0%
65	CCOC(=O)CC(c1ccc(N)cc1)n1c(C)ccc1C (stereo not drawn)	-3.0%
66	CC(=O)n1c2ccccc2c2nc3ccccc3nc21	-12.7%
67	COc1cc(OC)cc(C(=O)N[C@H](C(=O)OCC(=O)Nc2cccc(F)c2)C(C)C)c1	-2.1%
68	Cc1ccc(C)c(S(=O)(=O)N2CCN(C(=O)c3ccc(N4CCCC4)c([N+](=O)[O-])c3)CC2)c1	-3.7%
69	CN(C)c1ccc(-c2ccc3c(=O)c4ccccc4n(C)c3c2)cn1	10.1%
70	COc1ccc(/C=C(\NC(=O)c2ccc(C)cc2)C(=O)N2CCCCC2)cc1	-10.1%
71	Cc1occc1-c1nnc(SCC(=O)Nc2ccccc2-c2ccccc2)n1C	-7.9%
72	CN(CC(O)Cn1c2ccccc2c2ccccc21)S(C)(=O)=O (stereo not drawn)	-11.8%
73	COc1ccc2[nH]c3c(c2c1)CCN1C(=O)N([C@@H](C)C(=O)NCc2ccc(F)cc2)C(=O)[C@]31C	-11.0%
74	Cc1ccc(NC(=O)CCN2C(=O)C3C4CCC(C4)C3C2=O)cc1[N+](=O)[O-] (stereo not drawn)	12.5%
75	CC(Oc1ccc(Cl)cc1Cl)C(=O)NNC(=O)[C@@H]1CCCC[C@@H]1C(=O)O (stereo partly drawn)	7.2%
76	Cc1ccc(Nc2c3c(nc4nncn24)CCC3)cc1C	5.4%
77	CCC1CN(C(=O)N2CCC(C(=O)NCc3cccc(F)c3)CC2)c2cc(C)ccc2O1 (stereo not drawn)	1.8%
78	Cc1nc(NC(=O)CSc2nnc(C3CC3)n2C)sc1C	-6.0%
79	COc1ccc(-n2c(=O)c3c(C)c(C)sc3n(Cc3ccc(F)cc3)c2=O)c(OC)c1	14.9%&-2.5%
80	OC1(c2ccccc2)CCN(Cc2ccccc2)C2CCCCC21 (stereo not drawn)	-10.2%

# Further records follow:
no.	mol	VDR inhibitor
81	CC1(C)C(=O)N(CC(=O)Nc2cccc(F)c2)c2ccc(S(=O)(=O)N3CCCCC3)cc21	-0.5%
82	CN1C(=O)CSC1=Nc1ccc(F)cc1	-14.4%
83	COC(=O)CON1C(=O)c2ccccc2C1=O	15.7%
84	Cn1nnnc1SCC(=O)Nc1nc2c(F)c(F)c(F)cc2s1	-1.7%
85	O=C(O)c1cc(-c2ccc3c(c2)OCCO3)n[nH]1	5.7%
86	CC1(C)NC(=O)N(CC(O)CN2C(=O)NC(C)(C)C2=O)C1=O	8.9%
87	O=[N+]([O-])c1cc(C(F)(F)F)ccc1NCCOc1ccccc1	12.5%
88	Cc1ccc(S(=O)(=O)CC(=O)NCc2ccc(Cl)cc2)cc1	-7.7%
89	Cc1ccc(-c2nnc(NC3CCCC3)s2)cc1	-4.9%
90	COc1ccc(Cc2nc3ccc(C(=O)N4CCN(C)C(C)C4)cc3o2)cc1OC (stereo not drawn)	-3.4%
91	CCC(C)(C)n1nnnc1C(c1cc2ccc(OC)cc2[nH]c1=O)N1CCCCC1 (stereo not drawn)	-25.3%
92	CC(C)CCOc1ccc(N)cc1	1.3%
93	Cc1cc(C)n2nc3nc(N4CCCCC4)nc(-c4ccco4)c3c2n1	-16.7%
94	CC(=O)Nc1ccc(S(=O)(=O)N(CCCN2CCOCC2)Cc2cccs2)cc1	-14.4%
95	O=C(C1CCCN1S(=O)(=O)c1ccc(Cl)c(Cl)c1)N1CCOCC1 (stereo not drawn)	-3.9%
96	Cc1ccc(NC(=S)N2CCC(NC(=O)C3CCCCC3)CC2)cc1C	-4.4%
97	CN(Cc1nc(-c2ccc(Cl)cc2)no1)C(=O)c1ccco1	2.6%
98	NS(=O)(=O)c1ccc(NC(=O)COC(=O)CSc2n[nH]c(-c3ccccc3)n2)cc1	-2.9%
99	COCCn1c(SCc2ccc(C(=O)OC)o2)nnc1-c1c[nH]c2ccccc12	-9.8%
100	O=C(Nc1nccs1)c1cc(Cl)ccc1[N+](=O)[O-]	3.0%
101	CCC(C)Sc1nc2c(c(=O)[nH]c(=O)n2C)n1CC(O)COc1ccccc1C (stereo not drawn)	15.5%
102	Cc1ccc(/C=N/NC(=O)NN(C)c2ncc(C(F)(F)F)cc2Cl)cc1	-15.7%
103	O=C1c2oc3ccc(Cl)cc3c(=O)c2C(c2cccc(Br)c2)N1CCO (stereo not drawn)	8.0%
104	CCOC(=O)C1=C(C)N(C)C(=S)N(C)C1c1ccc(OC)cc1 (stereo not drawn)	4.5%
105	Cc1cc(C)nc(N2CCN(c3ccc(F)cc3)CC2)n1	-6.4%
106	CC(=O)Nc1ccc(Nc2ncnc3c2c(-c2ccccc2)cn3-c2ccc(C)c(Cl)c2)cc1	13.5%
107	O=C(NNC(=O)C1CCC1)c1ccc(Cl)cc1	-8.1%
108	COc1ccccc1CNC(=O)CC1Sc2ccccc2NC1=O (stereo not drawn)	-14.9%
109	FC(F)(F)c1ccccc1-c1nc(NC2CC2)c2ccccc2n1	-7.3%
110	CCCCn1c(N)c(N(CC(C)C)C(=O)COC(=O)Cc2cccc(OC)c2)c(=O)[nH]c1=O	-1.5%
111	CCN1CCN(C(=O)CN(c2ccc(F)c(Cl)c2)S(C)(=O)=O)CC1	-6.1%
112	CC(C)(C)C(=O)Nc1ccnn1C1CCN(C(=O)c2cccc(Cl)c2)CC1	?
113	COc1cccc(OC)c1NC(=O)C1CCCN1C(=O)NCc1ccccc1 (stereo not drawn)	1.8%
114	Cc1ccc(S(=O)(=O)N2CCOCC2)cc1NC(=O)CSc1ccc(Cl)cc1	-22.4%
115	CC(=O)Nc1ccc2nc(NC(=O)c3ccc([N+](=O)[O-])o3)sc2c1	-15.1%
116	CC(C)CCn1c(=O)c2cccnc2n(CC(=O)Nc2ccc(F)cc2)c1=O	2.2%
117	C[C@H]1NC(=O)[C@]2(C)[C@@H](c3ccccc3)[C@H]3COc4ccccc4[C@@H]3N2C1=O	-17.1%
118	COc1ccc(N2CCN(c3ncnc4onc(-c5ccc(F)cc5)c34)CC2)cc1	17.6%
119	COc1ccccc1N1CCN(S(=O)(=O)CCNC(=O)c2cc(OC)c(OC)c(OC)c2)CC1	-7.0%
120	Cc1cccc(NC(=O)CSCC(=O)Nc2cc(S(=O)(=O)N3CCOCC3)ccc2OC(C)C)c1	5.2%

# Assay outcomes: PubChem, National Center for Advancing Translational Sciences (NCATS)

# The list is partial (hit frequency here may not be typical).
